BasE inh = inhibitors of Acinetobacter baumannii siderophore enzyme BasE; purified BasE, fluorescence polarization binding displacement; inhibition, % (no concentration beside the values); hit rate 0.1% among 84,000; AID 485350;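 active = both replicates above 25% with normal brightness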;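 also: 0% = negative plate control signal and 100% = positive plate control signal; stock transfer was 100 nL into about 30 µL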
KSHV LANA nucl = inhibitors of KSHV LANA binding to nucleosomes; FITC-LANA1-23 / chicken nucleosome fluorescence polarization; stronger effect = lower value; hit rate 0.3% among 51,000; z-score (concentration not given with the values);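 active = both repeat wells score below -2 in polarization z-score versus plate sample wells, excluding overly bright wells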;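 also: 100 nL library stock added to about 30 µL; numbers are from one replicate; some results filed as inactive read as strong as hits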
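Test system: purified chicken nucleosomes with FITC-labelled LANA N-terminal peptide (1-23); Input: 240 nM purified chicken nucleosomes (480 nM peptide binding sites), final; Medium: TEN-BT buffer, pH 7.5; Timing: 10–45 min, room temperature; Technique: fluorescence polarization, 480 nm excitation, 535 nm parallel and perpendicular emission; Replication: duplicates.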
* = called active by the depositor; nt = not tested or not shown; & = joins results of further samples.

Preview (16 entries):
SMILES	BasE inh	KSHV LANA nucl
CCNc1sc(S(C)(=O)=O)nc1S(=O)(=O)c1ccc(C)cc1	-1.4	0.713
CN(C)c1cc(-c2ccc(Cl)c(Cl)c2)oc(=O)c1Cl	nt	-0.639
CCOC(=O)c1[nH]c(COC(=O)C2COc3ccccc3O2)c(C(=O)OCC)c1C (stereo unspecified)	-1.1	nt
COc1ccc(S(=O)Cc2ccc(C(=O)NC(C)C)o2)cc1 (stereo unspecified)	-1.5	0.226
Cc1oc(-c2ccc(C(=O)NC(C)C)cc2)nc1COc1ccccc1	0.8	-1.44
COc1ccc(CCNC(=S)N(Cc2ccco2)Cc2cc3cc(OC)c(OC)cc3[nH]c2=O)cc1OC	2.7	0.482
O=C1Nc2ccccc2C12OC1CCCCC1O2 (stereo unspecified)	-1.5	1.49
CC(C)Cn1c(NN)nc2c1c(=O)[nH]c(=O)n2C	1.8	nt
Cc1cccc2cc(C#N)c(SCCN3CCCCC3)nc12	-2.4	2
O=C(N/N=C/c1ccco1)c1cc(C23CC4CC(CC(C4)C2)C3)[nH]n1	-1.7	-0.029
Cc1ccc(CS(=O)Cc2ccc(C(=O)NC3CCCc4ccccc43)o2)cc1 (stereo unspecified)	-1.3	-0.277
COc1ccccc1-n1cnnc1SCC(=O)N(C)CC(=O)Nc1ccccc1Cl	3.1	nt
COc1ccc(C(O)Cc2nc3ccccc3n2C)cc1OC (stereo unspecified)	0.2	-0.201
CC(=O)N[C@@H](Cc1c[nH]c2ccccc12)C(=O)NC1CC1	1.0	nt
COc1cccc(-n2cnnc2SC(C#N)Cc2ccc(C)cc2)c1 (stereo unspecified)	4.5	nt
Cc1ccsc1/C=C1/CC/C(=C\c2sccc2C)C1=O	2.1	0.184

The listing (from the top)
SMILES	BasE inh	KSHV LANA nucl
CCNc1sc(S(C)(=O)=O)nc1S(=O)(=O)c1ccc(C)cc1	-1.4	0.713
CN(C)c1cc(-c2ccc(Cl)c(Cl)c2)oc(=O)c1Cl	nt	-0.639
CCOC(=O)c1[nH]c(COC(=O)C2COc3ccccc3O2)c(C(=O)OCC)c1C (stereo unspecified)	-1.1	nt
COc1ccc(S(=O)Cc2ccc(C(=O)NC(C)C)o2)cc1 (stereo unspecified)	-1.5	0.226
Cc1oc(-c2ccc(C(=O)NC(C)C)cc2)nc1COc1ccccc1	0.8	-1.44
COc1ccc(CCNC(=S)N(Cc2ccco2)Cc2cc3cc(OC)c(OC)cc3[nH]c2=O)cc1OC	2.7	0.482
O=C1Nc2ccccc2C12OC1CCCCC1O2 (stereo unspecified)	-1.5	1.49
CC(C)Cn1c(NN)nc2c1c(=O)[nH]c(=O)n2C	1.8	nt
Cc1cccc2cc(C#N)c(SCCN3CCCCC3)nc12	-2.4	2
O=C(N/N=C/c1ccco1)c1cc(C23CC4CC(CC(C4)C2)C3)[nH]n1	-1.7	-0.029
Cc1ccc(CS(=O)Cc2ccc(C(=O)NC3CCCc4ccccc43)o2)cc1 (stereo unspecified)	-1.3	-0.277
COc1ccccc1-n1cnnc1SCC(=O)N(C)CC(=O)Nc1ccccc1Cl	3.1	nt
COc1ccc(C(O)Cc2nc3ccccc3n2C)cc1OC (stereo unspecified)	0.2	-0.201
CC(=O)N[C@@H](Cc1c[nH]c2ccccc12)C(=O)NC1CC1	1.0	nt
COc1cccc(-n2cnnc2SC(C#N)Cc2ccc(C)cc2)c1 (stereo unspecified)	4.5	nt
Cc1ccsc1/C=C1/CC/C(=C\c2sccc2C)C1=O	2.1	0.184
CN/N=C/c1cc(OC)c(O)c(OC)c1	1.6	nt
Cc1sc2ncnc(Oc3cccc(C(F)(F)F)c3)c2c1-c1ccccc1	-2.7	nt
O=C(c1cc(C(F)(F)F)cc(C(F)(F)F)c1)N1CCC(O)(c2ccc(Cl)cc2)CC1	1.4	nt
Cc1ccc(SCc2cccc(C(=O)N3CCN(c4ncccc4C(F)(F)F)CC3)c2)cc1	0.6	nt
C=CCn1c(COc2ccc(CC)cc2)nnc1SC/C(O)=C(\C#N)c1nc2ccccc2[nH]1	-0.2	nt
Cc1nn(-c2ccccc2)c(Cl)c1C(=O)NCC1CCCO1 (stereo unspecified)	-0.6	nt
COc1cc(C2C3=C(CC(c4ccco4)CC3=O)Nc3ccccc3N2C(=O)C2CC2)cc(OC)c1OC (stereo unspecified)	0.4	0.821
CC(C)(C)CC(C)(C)NS(=O)(=O)Cc1ccccc1	1.9	0.024
c1ccc2c(c1)COC(CN1CCCCC1)OC2	2.8	nt
Remaining list, next part:
SMILES	BasE inh	KSHV LANA nucl
C=C(C)[C@@H]1CC[C@]2(C(=O)O)CC[C@]3(C)[C@H](CC[C@@H]4[C@@]5(C)CC[C@H](O)C(C)(C)[C@@H]5CC[C@]43C)[C@@H]12	0.1&-0.5	-1&-0.133
CC12CC3CC(C)(C1)CC(C(=O)Nc1ccc4c(c1)OCO4)(C3)C2	1.8	nt
CCOC(=O)c1c(N)n(C(C)c2ccccc2)c2nc3ccccc3nc12 (stereo unspecified)	-1.2	nt
Cc1oc(S(=O)(=O)N2CCCC2)cc1C(=O)NCc1ccc2c(c1)OCO2	0.7	nt
O=C(O)c1cc2ccccc2c(Cc2cc3ccccc3c(C(=O)O)c2O)c1O (tested in a mixture with another compound)	6.2	0.0385
COc1ccccc1C1(CC(=O)O)CCOC(C(C)C)C1 (stereo unspecified)	1.3	-1.01
Cc1n[nH]c(C)c1C12CC3CC(CC(CC(=O)O)(C3)C1)C2	-0.2	0.38
Cc1cc(NC(=O)C2C3C(=O)N(c4ccccc4Cl)C(C(=O)NC(C)(C)C)C34C=CC2(C)O4)no1 (stereo unspecified)	-0.8	-1.18
Clc1ccc(-c2ccnc3nncn23)cc1	2.6	0.23
Cc1cc(C)nc(SC(C)C(=O)Nc2ccc(S(N)(=O)=O)cc2)n1 (stereo unspecified)	-0.1	-0.318
N#CC(c1ccccc1Cl)N1CCOCC1 (stereo unspecified)	nt	0.434
Cc1ccccc1OCCCCS	2.0	-0.993
Fc1ccc2[nH]cc(CCCN3CCN(c4nc5cc(Cl)ccc5s4)CC3)c2c1	-2.0	nt
CCOC(=O)N1CCN(c2cc(NCCCC(=O)O)c3c4c(onc24)-c2ccccc2C3=O)CC1	11.7	nt
CCC(Sc1nnc2c3ccccc3n(CC)c2n1)C(=O)Nc1ccc(S(N)(=O)=O)cc1 (stereo unspecified)	-0.9	-0.477
Cc1cc(=O)oc2cc(OCC(=O)NCc3cccnc3)ccc12	1.3	nt
CCOC(=O)c1noc2ncnc(N(CC)c3ccccc3)c12	-1.0	1.43
O=C(OCc1cc(=O)oc2cc(O)ccc12)c1nc(Cl)ccc1Cl	0.3	nt
COc1ccc(NC(=O)N2CC=C(c3c[nH]c4ccccc34)CC2)cc1	-4.0	0.039
C=CCN1C(=O)/C(=C/c2ccc3c(c2)n(C)c(=O)n3C)C(=O)NC1=S	4.6	nt
O=C(CN1CCN(Cc2ccccc2)CC1)Nc1ccccc1	0.2	-0.347
CNS(=O)(=O)Cc1ccccc1Cl	2.9	0.041
Cc1cccc(C)c1NC(=O)CS(=O)CC(=O)NC1CCCc2ccccc21 (stereo unspecified)	0.6	-0.158
CCOC(=O)CCCn1nc(C)c2c(C)n(-c3ccc(C)cc3)nc2c1=O	-1.4	0.36
COC(=O)C1=C(NC(=O)COc2ccc(Cl)cc2)CCS1	2.0	-0.293
(further entries)
SMILES	BasE inh	KSHV LANA nucl
O=C1c2ccccc2C(=O)N1CCSc1nc2cc(Cl)ccc2c(=O)n1Cc1ccco1	-4.5	nt
Cc1c(CN2CCCCC2)c(O)n(CCO)c(=O)c1C#N	3.1	-0.901
COc1cccc(C(=O)N(Cc2cccnc2)Cc2cc3cc(C)cc(C)c3[nH]c2=O)c1	0.8	-0.07
O=c1[nH]c(SCc2nnc(Nc3ccccc3)s2)nc2sc3c(c12)CCC3	-2.2	nt
CN(C)S(=O)(=O)c1ccc(NC(=O)c2cnc(Cl)c(Cl)c2)cc1	0.3	nt
O=S(=O)(c1ccc(F)cc1F)N1CCCN(c2ccc(C(F)(F)F)cn2)CC1	nt	-0.775
CS(=O)(=O)NC(CC(=O)O)c1ccccc1Cl (stereo unspecified)	-0.7	nt
CCCN1CCN(CC(=O)c2ccc3cc[nH]c3c2)CC1	-4.8	0.268
O=C(/C=C/c1cccs1)NCc1ccccc1	-2.0	nt
COc1ccc(C(F)(F)F)cc1NC(=O)c1ccc(Br)o1	-0.8	-0.454
O=C(N/N=C/c1ccc(Br)cc1)c1ccc(-n2cnnn2)cc1	-0.8	nt
COC(=O)CN1C(C)=Nc2ccc(C)cc2C1c1ccccc1 (stereo unspecified)	0.2	nt
O=C(NC1=NCCS1)NC12CC3CC(CC(C3)C1)C2	1.1	-0.056
CC(C)(C)c1ccc(OCCn2cccc2/C=C2/C(=N)N3C=CSC3=NC2=O)cc1	-1.0	-0.42
CCOC(=O)c1c(NC(=O)Cn2nnc3sc4c(c3c2=O)CCC(C)C4)sc2c1CCCC2 (stereo unspecified)	1.1	nt
O=c1[nH]nc(SCc2csc(-c3ccccc3)n2)c(=O)[nH]1	-0.4	nt
OC1CSCc2nc3ccccc3n2C1 (stereo unspecified)	0.1	-1.23
CC(=O)O/N=C1/CC(C)(C)Cc2onc(C)c21	1.0	-0.488
O=C(/C=C/c1ccc2c(c1)OCO2)Nc1ccc2nc3n(c(=O)c2c1)CCCCC3	-0.2	-0.359
Cc1c(C(=O)NCC2CCCO2)oc2ccc(S(=O)(=O)N3CC(C)CC(C)C3)cc12 (stereo unspecified)	1.2	0.008
O=C(/C=C/c1ccco1)OC1CCCCC1=O (stereo unspecified)	1.0	nt
Cc1c(C#N)c(N)c(C(=O)c2ccc(Br)cc2)n1-c1ccc(Br)cc1	3.6	-0.724
O=S(=O)(NCC1CCCO1)c1ccc(N2CCOCC2)nc1 (stereo unspecified)	2.1	-0.229
CN(C)c1ccc(C(O)c2nc3ccccc3n2C)cc1 (stereo unspecified)	1.6	-0.216
COc1ccc(CN(C)C(=O)CSc2nnc3sc4ccccc4n23)cc1	1.8	nt
(list continues)
SMILES	BasE inh	KSHV LANA nucl
O=C(NCc1ccco1)c1c(NC(=O)c2nn(-c3ccccc3)ccc2=O)sc2c1CCC2	-0.3	0.928
COC(=O)NC1CS(=O)(=O)CC1NC(=O)OC (stereo unspecified)	-3.9	-0.0495
CCOC(=O)CC(N)c1ccc(OCC)c(OC)c1 (stereo unspecified)	-0.8	-0.311
O=C(c1ccc(Nc2nc3ccccc3n3nnnc23)cc1)N1CCN(c2ccccc2)CC1	1.2	-0.566
COc1ccc(OCCSc2n[nH]c(N)n2)cc1	1.6	0.777
COc1ccc(OC(C)C(=O)NCc2ccc3c(c2)OCO3)cc1 (stereo unspecified)	-1.7	0.792
CCn1cc(C(=O)N2CC(C)CC(C)C2)c(=O)c2cc(S(=O)(=O)N3CCC(C)CC3)ccc21 (stereo unspecified)	0.7	0.804
CC(C)Oc1ccc(C(=O)NCc2cccnc2)cc1	-0.6	-0.119
COc1cccc(N2CCN(C(=O)C3=C(C)C(=O)OC34CCCCC4)CC2)c1	0.5	-1.76
O=C(OCC(=O)C12CC3CC(CC(C3)C1)C2)c1cccnc1	1.4	nt
CCC(CC)c1nn(CC(=O)c2cc(C)n(CCOC)c2C)c(=N)s1	3.5	nt
COCCn1c(SCc2nc(N)nc(Nc3ccccc3C)n2)nc2ccccc21	-0.9	nt
O=C(Nc1ccccc1N1CCOCC1)c1cc2sc3ccccc3c2s1	4.0	0.322
OC(c1ccccc1)(c1ccccc1)C1CCN(c2nnnn2-c2ccccc2)CC1	1.1	nt
O=C(O)c1ccccc1-c1ccccc1C(=O)O	-1.7	1.32
CC1CC(=O)N(c2ccc(OC(F)(F)F)cc2)C1=O (stereo unspecified)	1.4	nt
CC(C)c1nnc(SCC(=O)Nc2ccc(Cl)cc2)n1N	0.8	nt
O=C(Cn1c(=O)sc2ccccc21)Nc1cccc(Cl)c1	1.6	-1.44
C=C(C)C1CC=C(C)/C(=N\NC(=O)Nc2ccccc2)C1 (stereo unspecified)	2.6	-0.119
CCOC(=O)c1cn(Cc2ccccc2)c2ccccc2c1=O	-2.2	0.748
CCc1c(C)nc(SCC(=O)N2CC(C)OC(C)C2)[nH]c1=O (stereo unspecified)	1.1	1.01
CN(CC(=O)Nc1ccccc1)CC(=O)Nc1ccccc1Cl	1.8	nt
COc1cccc(Cn2c(-c3cscn3)nc3ccccc32)c1	-0.5	nt
C=CCn1c(SCC(=O)NC(=O)Nc2ccccc2F)nc2ccccc21	0.5	nt
CC1(C)CN(c2ccc(Cl)cc2C(=O)c2ccccc2)C1=O	nt	0.0115
Continuation.
SMILES	BasE inh	KSHV LANA nucl
CC(C)(C)NC(=O)CCc1nc(-c2ccccc2)no1	1.9	-0.0935
COc1ccc(OCc2nnc(SCC(=O)N3C(C)CCCC3C)o2)cc1 (stereo unspecified)	-1.0	0.917
N#C/C(=C(/O)CN1CCOCC1)c1nc2ccccc2s1	-0.9	-1.17
COc1ccc(C(=O)Nc2nccs2)c(F)c1	0.2	nt
Cc1cc(C)c2c(c1)/C(=N/N)CCC2	2.3	nt
Cc1cc(=O)oc2c(C)c(OCC(=O)OC(C)C)ccc12	-2.2	0.181
COc1ccc2c(c1)C=C(C#N)CO2	nt	-0.004
O=C(c1ccc(Cl)cc1)N1CCS(=NS(=O)(=O)c2ccc(Cl)cc2)CC1	1.9	-0.34
CCN=c1scc(C)n1/N=C/c1cn(-c2ccccc2)nc1-c1ccc(OC)c(OC)c1	1.0	nt
O=C(NCCN1CCN(Cc2ccccc2C(F)(F)F)CC1)Nc1ccccc1	-3.6	1.71
Cc1ccc(C)c(NC(=O)CSc2ncnc3c2oc2ccccc23)c1	-1.2	-0.288
Oc1ccc(Cn2cnc3ccccc32)cc1	8.4	0.254
CC(C)Cn1c2ccc(Cl)cc2c2nc3ccccc3nc21	0.9	0.519

Assay outcomes: PubChem, ICCB-Longwood Screening Facility, Harvard Medical School

An excerpt; rates above refer to the full screens.
